BJeLR lethal: kills HRASV12-expressing BJeLR cells; BJeLR (HRASV12) viability, CellTiter-Glo ATP luminescence, 48 h; reference of the scale not given here; AID 1554; hit rate 0.17% among 300,000; inhibition, % (test concentration not listed);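 active = replicate mean above 50%; inconclusive = above 50% but judged a plate artefact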;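 note: 50 nL library stock added to about 25 µL; numbers are from one replicate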
ugtP null kill: compounds lethal to S. aureus RN4220 ugtP deletion mutant; OD600 growth, 16 h; some inactives read as strong as hits; growth inhibition, % (test concentration not listed); hit rate 0.54% among 330,000; AID 1259309;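 active = z-score under -3 and OD600 up to 0.15 on both plates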;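 note: plate controls were untreated wells for no effect and antibiotic for full effect; wells of about 80 µL received 100 nL stock; the first replicate is given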
RN4220 kill: S. aureus RN4220 growth inhibition; OD600, 16 h; inhibition, % (test concentration not listed); hit rate 0.33% among 330,000; AID 1259311;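 active = z-score of -3 or lower and OD600 up to 0.18 on both plates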;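 note: plate controls were untreated cells for no effect and reference antibiotic for full effect; stock transfer was 100 nL into about 80 µL; one replicate is shown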
Mtb hypoxia inh: inhibitors of hypoxia-regulated fluorescent reporter in Mycobacterium tuberculosis; M. tuberculosis hypoxia-regulated fluorescent reporter, fluorescence; fluorescence inhibition, % (no concentration beside the values); hit rate 0.1% among 300,000;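 active = 35 to 45% if threefold the growth effect, above 45% if 1.5-fold the growth effect; inactive = the rest, general growth blockers included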;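 note: wells of about 50 µL received 100 nL stock; 0% = vehicle wells and 100% = reference inhibitor wells; whole bacteria with a GFP reporter of the hypoxia response; strong numbers were not always called active; many hits fall short of the cut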
PrP 5UTR inh: suppresses PrP 5' UTR mRNA reporter expression | inhibition, % (test concentration not listed) | AID 488862 | cell-based PrP 5' UTR mRNA reporter, plate reader | hit rate 0.35% among 340,000;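 active = every replicate at 50% or more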;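 note: 0 = median of the neutral control wells; tested in H4 reporter cells; numbers are from one replicate; inactives centre near -14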
Bead autofluor: flagged as autofluorescent in microsphere protease counterscreen | compound autofluorescence counterscreen, microsphere flow cytometry; active compounds read high | fluorescence intensity (concentration not given with the values) | hit rate 3.1% among 360,000 | AID 624483;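 active = at least 3 SD above the mean of all compounds, about 16000 in these data; inconclusive = too few beads counted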;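 note: 100 nL of 1 mM stock went into each well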
Mtb hypoxia inh growth: further read-out of Mtb hypoxia inh, marked with its call; growth inhibition, %; measured here: M. tuberculosis growth (absorbance);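 0% = vehicle and 100% = reference antibiotic; read after six days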
* hit, by the source's call; ? = inconclusive; nt = not tested or not shown.

Each structure is followed by: BJeLR lethal | ugtP null kill | RN4220 kill | Mtb hypoxia inh | Mtb hypoxia inh growth | PrP 5UTR inh | Bead autofluor
O=C(OCC(=O)N1CCCc2ccccc21)c1cccnc1Cl
  0 | -1 | 0.5 | 6 | 14 | -16 | 2922
Cc1nn(-c2ccccc2)c(N)c1-c1ccccc1
  6 | 6 | 3.1 | 15 | 9 | -79 | 3172
COCCCNC(=O)/C=C/c1c(Cl)cccc1Cl
  -8 | nt | nt | nt | nt | -25 | 2185
CC(=O)N1c2c(cc(Br)cc2S(=O)(=O)NCc2ccccc2)CC1C (configuration not stated)
  -9 | 8 | 4.2 | 1 | 3 | -8 | 3858
Cc1c(NC(=O)CN2C(=O)NC(C)(c3ccc4c(c3)OCCO4)C2=O)c(=O)n(-c2ccccc2)n1C (configuration not stated)
  -4 | 3 | 3.7 | 6 | 10 | -16 | 2506
O=CNCc1nc2ccccc2n1CCc1ccccc1
  3 | 6 | 8.3 | 17 | 5 | -10 | 4906
O=C(NCc1cccs1)C(Cc1ccccc1)n1cccc1 (configuration not stated)
  -1 | -6 | -10 | 5 | 7 | -10 | 5186
CC(=NNC(=O)CNc1ccc(F)cc1)c1cc2ccccc2o1
  nt | -10 | -4.8 | 8 | 5 | nt | nt
CC1=CS(=O)(=O)CC1Sc1nc2ccccc2[nH]1 (configuration not stated)
  4 | -9 | 0.8 | -9 | 2 | 2 | 1880
COc1ccc(CCNC(=O)CCCn2c(=O)c3cccn3c3cccnc32)c(OC)c1
  6 | 9 | -0.1 | 7 | -4 | -7 | 4463
O=C(N/N=C/c1cccc(O)c1)c1csc2ccccc12
  3 | nt | nt | nt | nt | -4 | 2908
COc1ccc(C=NNS(C)(=O)=O)c(OC)c1
  nt | 7 | 5.5 | 4 | 6 | nt | nt
Clc1ccc2nc(CSc3nc4ccccc4o3)cn2c1
  -1 | -7 | 3.2 | -4 | -13 | -94 | ?
COC(=O)Nc1ccc(SCC(=O)c2ccccc2)cc1
  8 | 10 | 4.9 | 15 | 12 | -33 | 3405
COc1ccc(N2CCN(C(=O)COC(=O)CNC(=O)c3cccc(OC(F)F)c3)CC2)cc1
  nt | -2 | -0.4 | -6 | 7 | nt | 5844
Cc1cc(OCC(=O)N2CCCCCC2)ccc1[N+](=O)[O-]
  0 | 1 | -2.9 | 1 | 8 | -69 | 8847
Cc1nn(-c2ccccc2)c2nc(N)c(C#N)c(-c3ccc(F)cc3)c12
  -3 | -27 | 0.3 | 7 | 17 | -25 | 3851
CCOC(=O)C1CCN(CCC(=O)Nc2cccc(Cl)c2C)CC1
  -20 | 7 | 2.3 | 9 | 11 | -12 | 11038
CCOc1cc(CNCCO)cc(Br)c1OCc1ccccc1
  5 | -14 | -1.3 | 19 | 1 | -22 | 2608
Cc1ccc(NC(=O)c2cc(-c3ccccc3O)n[nH]2)cc1C
  -7 | 2 | 0.8 | 5 | 7 | -50 | 3620
COC(=O)C1=C(C)N(CC2CC2)C(=NCCN2CCOCC2)NC1c1ccccc1 (configuration not stated)
  nt | -8 | 1.4 | 7 | 5 | nt | nt
COc1ccc(C(CNC(=O)c2cccc(S(=O)(=O)Nc3ccc(C)cc3)c2)N2CCCCC2)cc1 (configuration not stated)
  -10 | 7 | -0.1 | 11 | 1 | -8 | 9055
COc1ccc(C(=O)Nc2cccc(NC(C)=O)c2)cc1OC
  1 | -8 | 2.2 | 6 | 1 | 0 | 1887
COCC(=O)N1CCCC(C(=O)c2ccc(C(F)(F)F)cc2)C1 (configuration not stated)
  -1 | 6 | 0.7 | 10 | 6 | -26 | 3049
Cn1c(C(=O)O)cc2cc(F)ccc21
  8 | 4 | 2.6 | 15 | -6 | -26 | ?
CCOc1ccccc1NC(=O)Cc1c(F)cccc1Cl
  13 | -3 | 7.8 | -2 | -2 | -39 | 10916
O=C(NCCCN1CCC(Cc2ccccc2)CC1)C1CCC(=O)N1C1CCCC1 (configuration not stated)
  4 | 1 | 3.5 | -1 | 4 | -25 | 9241
CCOC(=O)c1ccc(N2C(=O)CC(N3CCN(Cc4ccccc4)CC3)C2=O)cc1 (configuration not stated)
  10 | 4 | 2.3 | 14 | 6 | 4 | 2513
CC(O)CSc1nc2c(c(=O)n(C)c(=O)n2C)n1CCCc1ccccc1 (configuration not stated)
  -5 | 0 | -11 | 4 | 16 | 3 | 4885
CC(=O)OC1COC(N2CCc3cc(Br)c([N+](=O)[O-])cc32)C(OC(C)=O)C1OC(C)=O (configuration not stated)
  -25 | -8 | 4.3 | 11 | 20 | -19 | ?

Overlap with the part before: 2 compounds, then new ones.
Each structure is followed by: BJeLR lethal | ugtP null kill | RN4220 kill | Mtb hypoxia inh | Mtb hypoxia inh growth | PrP 5UTR inh | Bead autofluor
CC(O)CSc1nc2c(c(=O)n(C)c(=O)n2C)n1CCCc1ccccc1 (configuration not stated)
  -5 | 0 | -11 | 4 | 16 | 3 | 4885
CC(=O)OC1COC(N2CCc3cc(Br)c([N+](=O)[O-])cc32)C(OC(C)=O)C1OC(C)=O (configuration not stated)
  -25 | -8 | 4.3 | 11 | 20 | -19 | ?
Oc1ccc(Cl)cc1Cc1cc(Cl)ccc1O
  3 | 86* | 94* | 2 | 4 | -3 | 4306
COc1cccc(N/C(SCc2ccccc2Cl)=C(/C#N)C(=O)NCc2cccs2)c1
  8 | -7 | -7.5 | -3 | 6 | -26 | 2008
COc1ccc(NC(=O)CN(C)C(=O)c2ccccc2CCc2ccccc2)cc1
  -3 | 10 | 4.5 | 2 | -1 | -1 | ?
CNC(C)Cc1ccccc1 (configuration not stated)
  nt | 10 | 3.6 | nt | nt | -6 | 4944
S=c1[nH]nc(-c2cccnc2)n1N=Cc1cccs1
  nt | -4 | 13 | 7 | 12 | nt | nt
Cc1ccc(N(CC(O)CN2CCCC2)S(=O)(=O)c2ccccc2)cc1 (configuration not stated)
  2 | 5 | -0.7 | 0 | -2 | 0 | 7317
COc1ccc(-c2nn(-c3ccccc3)cc2/C=N/O)cc1
  10 | nt | nt | nt | nt | -22 | 3974
COC(=O)C1=C(C)N=C2SC(C#N)=C(N)N2C1c1ccc(OCc2ccccc2)cc1 (configuration not stated)
  0 | 71 | -6.3 | 14 | 9 | -12 | 2887
O=S(=O)(c1ccc(SCc2cccc(Cl)c2)nc1)N1CCCC1
  nt | 4 | -3.4 | 13 | 43 | -2 | 6533
CSc1cccc(NC(=O)c2cc(S(=O)(=O)N3CCCCC3)c[nH]2)c1
  12 | 9 | 4.7 | 14 | 5 | -11 | 5634
CCC1(c2ccccc2)NC(=O)N(CC(=O)Nc2ccc3c(C)cc(=O)oc3c2)C1=O (configuration not stated)
  1 | 1 | 2.9 | 3 | 1 | -12 | ?
Cc1cc(NC(=O)C(C)SCC(=O)N(C)CC(=O)Nc2ccc(F)cc2)no1 (configuration not stated)
  -3 | 1 | 3.2 | 9 | 3 | 3 | ?
O=C(NC(Cc1ccccc1)C(=O)N1CCCC(C(F)(F)F)C1)c1ccccc1 (configuration not stated)
  -5 | 0 | -2.2 | 12 | -1 | -18 | ?
CC(Sc1nnc(-c2ccco2)n1N)C(=O)NC1CCCCC1C (configuration not stated)
  nt | -2 | -4.7 | -2 | -4 | -15 | 3346
Cc1cccc(OCC(=O)NNC(=O)c2cc(S(=O)(=O)N(C)C)ccc2N2CCCC2)c1
  nt | 7 | 1.7 | 4 | -2 | -26 | 9016
CC(=O)O[C@]1(C)C(=O)OC/C2=C/CN(C)CCC(OC(=O)[C@@](O)(C(C)O)C[C@H]1C)C2=O (some centres not stated)
  -2 | 16 | 0.2 | 6 | -2 | -8 | 3603
O=C(CN1CCCc2ccccc21)NC(=O)NCc1ccco1
  -1 | 3 | 5.1 | 15 | 19 | -26 | 17200*
Cc1ccc(-c2nn3c(C)nnc3c3ccccc23)cc1S(=O)(=O)N1CCN(CCO)CC1
  -2 | -7 | -2.2 | -15 | 5 | -8 | 8731
O=[N+]([O-])c1ccc(C2(O)CN(c3ccccc3)C3=[N+]2CCS3)cc1 (configuration not stated)
  4 | 16 | 17 | 8 | 8 | -4 | 4351
CC(NC(=O)c1cc(S(=O)(=O)N2CCOCC2)ccc1N1CCCC1)c1ccc(Cl)c(Cl)c1 (configuration not stated)
  -6 | 4 | 2.1 | 7 | -3 | -7 | nt
COc1ccc(CCN(C(=O)C(F)(F)F)C(C(=O)NC2CCCC2)c2cccs2)cc1 (configuration not stated)
  -14 | -14 | -8.1 | 0 | 6 | -9 | 11084
Cc1ccc(SCc2ccc(C(=O)N3CCCC3)cc2)cc1
  1 | 2 | 11 | 10 | 9 | -50 | 4608
CC1=C(C(=O)OCC(C)C)C(c2cccs2)NC(=S)N1 (configuration not stated)
  -9 | -3 | 2.9 | -3 | 5 | -2 | 10881
Cc1cc(NC(=O)Nc2ccc(Cl)cc2)no1
  -12 | -10 | -3.2 | -7 | 13 | -22 | 3605
CCSc1nnc(NC(=O)CSc2nc(CC)nc3c2c(=O)n(C)c(=O)n3C)s1
  -1 | 13 | 8.5 | 0 | -2 | 33 | 6886
COc1ccc(/C=[N+](\[O-])C2N(c3ccccc3)C(=S)SC2(C)C)cc1OC (configuration not stated)
  -10 | 8 | 3.0 | 15 | 1 | -35 | 5884
O=C(Nc1ccc(S(=O)(=O)Nc2nccs2)cc1)c1c(F)c(F)c(F)c(F)c1F
  -4 | -10 | -2.0 | nt | nt | 0 | 5426
Cc1ccc(-c2cc(-c3ccc(Cl)cc3)c(C#N)c(N)n2)o1
  5 | -12 | 5.0 | 4 | 7 | -10 | 10471
Cc1cc2ccc3ccccc3c2cc1CN(C)C
  7 | nt | nt | nt | nt | -62 | 6669
COC(=O)c1ccc(S(=O)(=O)N2CCN(C)CC2)n1C
  3 | 2 | 4.9 | 3 | 1 | -24 | nt
Cc1ccc(CNC(=O)CSc2nc3[nH]ncc3c(=O)[nH]2)cc1
  25 | -3 | 3.2 | 2 | 1 | 1 | 8886
COc1ccccc1CN1CCN(Cc2nc(-c3ccc(C)cc3)oc2C)CC1
  -4 | 11 | -1.2 | -7 | 5 | -20 | 3520
COc1ccc(N(CC(=O)Nc2ccccc2OC)S(=O)(=O)c2ccccc2)cc1Cl
  -7 | -8 | -2.9 | -8 | 13 | -32 | 3633
COc1ccc(N2CCN(c3nccs3)CC2)cc1
  -11 | 5 | 0.1 | -1 | 10 | -32 | 5842
Cc1ccc2c(C)c(C(=O)Nc3c(C)n(C)n(-c4ccccc4)c3=O)oc2c1C
  12 | 6 | 1.1 | 7 | 3 | -18 | 2533
CCOC(CC(=O)NNC(=O)c1c(-c2c(Cl)cccc2Cl)noc1C)OCC
  11 | -3 | 2.8 | 3 | 9 | nt | 6114
COc1ccc(Cl)cc1NC(=O)CSc1nc2ccsc2c(=O)n1CC1CCC(C(=O)O)CC1 (configuration not stated)
  1 | -2 | -3.4 | -15 | -9 | 5 | 4582
COC(=O)C1C2c3ccccc3OC1(C)N=c1s/c(=C/c3cnn(C)c3C)c(=O)n12 (configuration not stated)
  2 | nt | nt | nt | nt | -31 | 3394
O=C(NNC(=O)c1cccnc1)Nc1ccc(Cl)c(Cl)c1
  -5 | -3 | -2.4 | 2 | 0 | -11 | 3977
CCOC(=O)c1c(NC(C)=O)sc2c1CCC(C=O)=C2Sc1ccccc1
  -9 | -9 | 13 | 11 | 4 | -23 | 7887
CC(C)N(Cc1ccccc1)C(=O)C1CCCN(c2ncnc3c2nc2n3CCCCC2)C1 (configuration not stated)
  -3 | -7 | -1.7 | -11 | 2 | -7 | 4425
Cc1cc(NC(=O)c2cn(C3CCCCC3)c(=O)c3c2c2ccccc2n3C)no1
  0 | 13 | -2.4 | -5 | 6 | 0 | 6338
O=C(Nc1nccs1)c1ccc(-c2cccc([N+](=O)[O-])c2)o1
  -6 | -7 | 8.7 | 3 | -4 | -36 | 4598
CC(C)Cn1c(/C=C/c2ccccc2)nc2ccccc21
  3 | -16 | 2.0 | 18 | 6 | -43 | 1943

Arranged by number of heavy atoms (smallest number first): some entries from above
Each structure is followed by: BJeLR lethal | ugtP null kill | RN4220 kill | Mtb hypoxia inh | Mtb hypoxia inh growth | PrP 5UTR inh | Bead autofluor
CC(=NNC(=O)CNc1ccc(F)cc1)c1cc2ccccc2o1
  nt | -10 | -4.8 | 8 | 5 | nt | nt
COc1ccc(CCN(C(=O)C(F)(F)F)C(C(=O)NC2CCCC2)c2cccs2)cc1 (configuration not stated)
  -14 | -14 | -8.1 | 0 | 6 | -9 | 11084
COc1ccc(CCNC(=O)CCCn2c(=O)c3cccn3c3cccnc32)c(OC)c1
  6 | 9 | -0.1 | 7 | -4 | -7 | 4463
